High-throughput results as filed in PubChem BioAssay.
Mtb H37Rv: Mycobacterium tuberculosis H37Rv growth inhibition, cell based, confirmatory dose response (AID 1949) | most inactive calls were filed without a number and no value below 0 was filed | inhibition, % at 10 µg/mL, or IC50 in µg/mL where a hit was titrated | 1.6% of 100,000 active;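 active = confirmed in a dose series; inconclusive = about 50% or more but not retested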;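 note: bacteria grown 7 days with compound before Alamar blue readout; 0% = untreated bacteria and 100% = reference antibiotic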
* = called active by the depositor; i = inactive; ? = inconclusive. Only part of the results is shown, so the mix of outcomes need not match the whole.

SMILES | Mtb H37Rv
Cc1ccc2nc(-c3ccc(NC(=S)NC(=O)c4ccc([N+](=O)[O-])cc4)cc3)sc2c1 | i
O=C(Nc1ccccc1Cl)c1ccc2c(c1)C(=O)N(Cc1ccco1)C2=O | i
COc1cc(C(=O)OCc2ccccc2Cl)c(Br)c(OC)c1OC | i
CCOc1cc(C)c(S(=O)(=O)N2CCOCC2)cc1C | i
CC(Nc1cccc(Br)c1)c1cc(Cl)ccc1O (stereo not given) | i
COC(=O)c1cc(OC)c(OC)cc1NC(=O)c1ccc2c(c1)OCO2 | i
COc1ccc(CCNC(=O)c2ccc(C(=O)NCCc3ccc(OC)cc3)cc2)cc1 | i
N#Cc1c2c(nc(N)c1-c1ccccc1)CCCCC2 | 2.6%
CCC(C(=O)NCCN1CCOCC1)c1ccccc1 (stereo not given) | i
Cn1ncc2c1ncn1c(-c3ccccc3)nnc21 | i
NC(=O)c1ccccc1NC(=O)Cc1ccc(Br)cc1 | 0.3%
Cc1ccccc1-c1nc(C#N)c(N2CCCC2)o1 | i
CC(=O)c1ccc(NC(=O)CC(O)(C(F)(F)F)C(F)(F)F)cc1 | i
Fc1cccc(Cl)c1COc1ccc(C(=S)N2CCCC2)cc1 | i
COc1cc(SC)ccc1C(=O)NC1CCCCCC1 | 33.3%
O=c1ccc2cc(S(=O)(=O)NCc3ccco3)ccc2o1 | i
Cc1cccc(Nc2ncnc3c2cnn3Cc2ccccc2)c1 | 17.4%
CC(C)c1ccc(CNC(=O)CSc2cccc3cccnc23)cc1 | 1.4%
CCCCOc1ccc(NC(=O)C(=O)NC(C)C)cc1 | i
COc1ccccc1C(=O)Nc1cccc(N(C)S(C)(=O)=O)c1 | i
Cc1occc1C(=O)Nc1cccc(Cn2cccn2)c1 | i
O=C(CSc1nc(O)cc(=O)n1-c1ccccc1)N1CCCCC1 | i
O=C(Nc1nc(-c2ccc(F)cc2F)cs1)c1cc(Cl)ccc1Cl | 1.5%
CCOc1ccc2nc(NS(=O)(=O)c3ccc4c5c(cccc35)C(=O)N4C)sc2c1 | i
O=C(CSc1nc(O)cc(=O)n1-c1ccccc1)c1ccccc1 | i
O=C(c1cccs1)N1N=C(c2cccnc2)CC1c1ccccc1O (stereo not given) | i
COC(=O)Cc1c(C)c2ccc(OCc3c(C)ccc4ccccc34)cc2oc1=O | 0.4%
CC(C)(C)c1ccc(C(=O)Nc2ccccc2C(=O)NC2CCCCC2)cc1 | 6.7%
CCSc1nnc(NC(=O)Cc2ccccc2)s1 | i
C=CCOc1c(Cl)cc(CNCCc2ccc(OC)c(OC)c2)cc1OC | 3.7%
COC(=O)c1ccc2ccn(CC(N)=O)c2c1 | i
COc1cc(C=O)cc(Br)c1OC(=O)c1cccs1 | i
O=C1c2oc3ccccc3c(=O)c2C(c2cccc([N+](=O)[O-])c2)N1CCN1CCOCC1 (stereo not given) | i
CC(NC(=O)c1csc2c1CCCC2)c1ccncc1 (stereo not given) | i
C=CCn1c(SCc2cccc(Br)c2)nc2ccccc2c1=O | 5.6%
COc1ccc(N(CC(=O)Nc2ccc(OC)cc2OC)S(=O)(=O)c2ccc(C)cc2)cc1 | 1.7%
S=C(Nc1ccc(Cl)c(Cl)c1)N1CCN(c2ncccn2)CC1 | i
CC(C)Sc1nc2sc3c(c2c(=O)n1Cc1ccccc1)CC(C(C)C)OC3 (stereo not given) | 19.4%
CCOC(=O)C1CCN(C(=S)Nc2ccccc2OC)CC1 | 1.5%
CCN1CCCC1CNC(=O)C(=O)NCC1CCCO1 (stereo not given) | i

A different layout for part of the listing above.
smiles: COC(=O)c1ccc2ccn(CC(N)=O)c2c1
  Mtb H37Rv: i
smiles: COc1cc(C=O)cc(Br)c1OC(=O)c1cccs1
  Mtb H37Rv: i
smiles: O=C1c2oc3ccccc3c(=O)c2C(c2cccc([N+](=O)[O-])c2)N1CCN1CCOCC1 (stereo not given)
  Mtb H37Rv: i
smiles: CC(NC(=O)c1csc2c1CCCC2)c1ccncc1 (stereo not given)
  Mtb H37Rv: i

Laid out differently: results already given.
| molecule | Mtb H37Rv |
| --- | --- |
| COc1ccc(N(CC(=O)Nc2ccc(OC)cc2OC)S(=O)(=O)c2ccc(C)cc2)cc1 | 1.7% |
| S=C(Nc1ccc(Cl)c(Cl)c1)N1CCN(c2ncccn2)CC1 | i |
| CC(C)Sc1nc2sc3c(c2c(=O)n1Cc1ccccc1)CC(C(C)C)OC3 (stereo not given) | 19.4% |
| CCOC(=O)C1CCN(C(=S)Nc2ccccc2OC)CC1 | 1.5% |

The list continues:
SMILES | Mtb H37Rv
COC(=O)c1cc(OC(=O)C23CC4CC(CC(C4)C2)C3)n(C)n1 | 3.2%
CC(C)(C)NC(=O)Cn1cc(C#N)c2cc(Br)ccc21 | 0.7%
COc1ccc(C)cc1NC(=O)CN(Cc1ccccc1F)S(=O)(=O)c1ccc(Cl)cc1 | 2.9%
Cc1cc(C)c(C)c(C(=O)COC(=O)CNS(=O)(=O)c2ccccc2)c1C | i
CC(C)c1ccc(N2C(=O)CC(N3CCOCC3)C2=O)cc1 (stereo not given) | i
O=C1CCCC2=C1C(c1ccc(OCc3c(Cl)cccc3Cl)cc1)C1=C(CCCC1=O)N2 | i
COc1ccccc1NC(=O)c1ccc(OCC(=O)Nc2ccccc2F)cc1 | ?
COC(=O)c1ccc(COC(=O)c2ccccc2Br)cc1 | 49.6%
Cc1ccc(OCCCN2CC(C)OC(C)C2)cc1C (stereo not given) | i
C=CCn1c(SCC(=O)Nc2ccccc2C)nc2ccc(I)cc2c1=O | i
COC(=O)c1ccc(COc2ccc(F)cc2)o1 | 3.5%
Cn1c(=O)c2ncn(CC(=O)NCCOc3ccccc3)c2n(C)c1=O | i
CCOc1ccc(C2C(C(=O)OC)C(=O)CC(C)(O)C2C(=O)OC)cc1 (stereo not given) | i
CCc1ccc(S(=O)(=O)Nc2ccc(I)cc2)cc1 | 11.7µg/mL*
COc1ccc(S(=O)(=O)Nc2ccc3[nH]c(=O)[nH]c3c2)cc1 | 4.0%
CCCCC(=O)NC(=S)Nc1ccc(N2CCN(C(=O)c3ccco3)CC2)c(Cl)c1 | 0.67µg/mL*
O=C(Nc1ccc(F)cc1F)c1ccc(COc2ccc3c(c2)CCC3)o1 | 1.5%
CCOC(=O)c1ccc(NC(=O)c2ccc(N(C)S(C)(=O)=O)cc2)cc1 | i
CC1=C(C(=O)OC(C)(C)C)C(c2cccs2)NC(=O)N1 (stereo not given) | i
CCOC(=O)C1CCN(C(=O)C2CCN(Cc3ccc(OC)cc3OC)CC2)CC1 | i
CCCCc1ccc(-n2c(-c3ccccc3)n[nH]c2=S)cc1 | i
Nc1c(C(=O)N2CCOCC2)sc2nc(-c3ccc(Cl)cc3)cc(C(F)(F)F)c12 | 0.2%
O=C(NCCCN1CCOCC1)c1cc(-c2ccc3c(c2)OCO3)nc2ccccc12 | i
Cc1ccc(C(=O)Nc2ccccc2C(N)=O)s1 | i
C=CCNc1oc(-c2ccccc2C)nc1C#N | 0.2%
Nn1c(COc2ccccc2)nnc1SCc1cc(=O)[nH]c2ccccc12 | i
COc1cc2ccccc2cc1C(=O)Nc1c(C)cc(Br)cc1C | 18.1%
CSc1ccccc1N1C(=O)CC(Sc2ccccc2C(=O)O)C1=O (stereo not given) | i
CCNC(=S)Nc1cccc(F)c1C | i
COc1cc(-c2csc(C)n2)ccc1O | 1.2%
CC1=CC(c2ccccc2)n2nc(N3C(=O)C4CCCCC4C3=O)nc2N1 (stereo not given) | i
CS(=O)(=O)N(Cc1ccccc1)c1ccccc1C(=O)NCCSc1ccccc1 | i
C=CCOc1ccc(C2C(C(=O)c3cccs3)=C(O)C(=O)N2CCCN2CCOCC2)cc1 (stereo not given) | i
CCc1nnc(NC(=O)CSc2nc3c(cc2C#N)CCC3)s1 | i
CC(C)(C)c1ccc(C(=O)N2CCN(c3ccc([N+](=O)[O-])c(N4CCCC4)c3)CC2)cc1 | 10.4%
O=C(Cn1c(NCCO)nc2ccccc21)C12CC3CC(CC(C3)C1)C2 | i
CC12CCC(C(=O)Nc3ccccc3[N+](=O)[O-])(OC1=O)C2(C)C (stereo not given) | i
CCOc1ccc(-c2cc(C(=O)NN)c3ccccc3n2)cc1 | i
O=C(CC1(O)C(=O)N(CCc2ccccc2)c2ccccc21)c1cccc(Br)c1 (stereo not given) | i
O=C1N/C(=N/N=C/c2ccc(Cl)cc2)SC1Cc1ccc(Cl)cc1 (stereo not given) | i
CN(C)CCOc1ccc(I)cc1 | i
Cc1ccc(F)cc1Nc1ncnc(N)c1[N+](=O)[O-] | i
CCOC(=O)C1=C(C)NC2=C(C(=O)CC(c3ccco3)C2)C1c1ccc(C(F)(F)F)cc1 (stereo not given) | 10.1%
FC(F)(F)c1nnc2ccc(N3CCOCC3)nn12 | i
CCN(CC)C(=O)C(=O)c1cn(CC(=O)N2CCc3ccccc3C2)c2ccccc12 | 5.9%
Cc1ccc(OCC(=O)O/N=C(\N)c2ccccc2)cc1C | 2.7%
CCOc1ccc(N2CC(=O)N(c3ccc(OCC)cc3)CC2=O)cc1 | 4.0%
CSCC(=O)Nc1cc(C)ccc1C | i
CCOC(=O)/C(C#N)=C/c1ccc(-c2ccc(F)cc2)o1 | 0.25µg/mL*
CC(C)CCNC(=O)C(=O)Nc1ccc(Br)cc1 | i
COc1ccccc1CNC(=S)Nc1cccc(Cl)c1C | i
O=C(O)C1C2C=CC3(CN(Cc4cccs4)C(=O)C13)O2 (stereo not given) | i
Cc1cc(C(=O)Nc2ccccc2C(=O)O)oc1C | i
Cc1ccccc1-c1nnc(SCC(=O)Nc2sc3c(c2C#N)CCCC3)n1C | 2.0%
CCOC(=O)C(C)Oc1ccc(C2NC(=O)NC(C)=C2C(=O)Nc2ccc(C)cc2)cc1OC (stereo not given) | i
COc1cccc(NC(=O)C2CC(C)=C(C)CC2C(=O)O)c1 (stereo not given) | 0.1%
Cc1cc(Br)ccc1NC(=O)CSc1nnc(-c2ccncc2)n1C | i
CCOC(=O)CNC(=O)Cc1ccc(C)cc1 | i
COc1cc(Cl)c(C)cc1NC(=O)Oc1ccccc1 | i
OCCNC(=S)Nc1cccc(F)c1 | 5.9%

Looked up above:
`OCCNC(=S)Nc1cccc(F)c1` – Mtb H37Rv: 5.9%
`CCOC(=O)/C(C#N)=C/c1ccc(-c2ccc(F)cc2)o1` – Mtb H37Rv: 0.25µg/mL*

(cont.)
SMILES | Mtb H37Rv
CCCCC(=O)Nc1cccc(NC(=O)c2cccc([N+](=O)[O-])c2C)c1 | i
COC(=O)c1ccc(Cl)c(NC(=O)c2ccc(CSc3ccccc3)cc2)c1 | 1.7%
NC(=NC(=O)c1ccccc1)N1CCN(C(c2ccccc2)c2ccccc2)CC1 | i
O=C(c1ccco1)N(Cc1ccccc1)Cc1cn(-c2ccccc2)nc1-c1cccs1 | 11.2%
Cc1ccc(CC(=O)Nc2cc(Cl)ccc2Cl)cc1 | i
Cn1c(SCc2nc(-c3cccs3)no2)nnc1C1CCCCC1 | 4.1%
CCOc1cc(C2NC(=S)NC(C)=C2C(=O)OC)cc(Cl)c1OCc1ccccc1 (stereo not given) | i
CC(C)c1ccc(NC(=O)CSc2nnc(-c3ccc(Br)cc3)n2C)cc1 | i
O=C(Nc1nccs1)c1cc(Cl)cc(Cl)c1 | 10.2µg/mL*
CCN(CC)C(=O)COc1cc(C)c(Br)c(C)c1 | i
CCn1c(SCC(=O)Nc2cccc(Cl)c2C)nnc1-c1cccc(C)c1 | i
COc1ccc(C(=O)Oc2c(Cc3ccccc3)c(=O)oc3ccccc23)cc1 | i
CN(C)S(=O)(=O)c1ccc(NC(=O)c2cccs2)cc1 | i
Nc1ccccc1Oc1nnnn1-c1ccc(C(=O)O)cc1 | i
COc1ccc(C(=O)N=Nc2c(O)[nH]c3ccc([N+](=O)[O-])cc23)cc1 | i
CCOC(=O)c1c(NC(=O)CCc2ccccc2)sc(C(=O)Nc2ccccc2OC)c1C | i
CCOC(=O)c1cc(-c2ccccc2)sc1NC(=O)c1ccccc1[N+](=O)[O-] | i
CCOC(=O)C1=CN(C)C=C(C(=O)OCC)C1c1ccc(OC)c(OC)c1OC | i
CCOC(=O)C1C(=O)CC(C)(O)C(C(=O)OCC)C1c1cccc(OC(F)(F)C(F)F)c1 (stereo not given) | i
CC(=O)c1cccc(NC(=O)CSCc2ccc(Cl)cc2)c1 | 0.7%
O=C(CC12CC3CC(CC(C3)C1)C2)Nc1ccccc1-c1nc2ccccc2s1 | i
COc1ccc(/C(N)=N/OC(=O)c2ccccc2-c2ccccc2)cc1 | 22.2%
COc1ccc(NC(=O)Nc2ccc3c(c2)CCC3)c(OC)c1 | i
O=C(NCCc1ccc(Cl)cc1)c1nc2ccccc2[nH]1 | i
CC1=NN(c2ccc(S(N)(=O)=O)cc2)C(=O)C1 | i
CCc1c(C)sc(NC(=O)c2cnccn2)c1C(N)=O | 3.6%
Cc1ccccc1CNC(=O)C(=O)Nc1cccc(C)c1C | i
CN(C)S(=O)(=O)c1ccc(-c2cn3cc(Cl)ccc3n2)cc1 | i
O=C(CSCC(=O)c1ccc(F)cc1)Nc1ccc2ccccc2c1 | i
O=C(O)C1C2CCC(O2)C1C(=O)N1CCN(c2ccc(Cl)c(Cl)c2)CC1 (stereo not given) | i
Cc1cc(Br)ccc1NC(=O)COc1cc(Cl)c(Cl)cc1Cl | i
O=C(Nc1ccc(F)cc1)Nc1ccc(-c2ccccc2[N+](=O)[O-])cc1 | i
CC(=O)Nc1ccc2nc(NC(=O)c3cccc(-c4cc5ccccc5oc4=O)c3)sc2c1 | i
COc1ccccc1Oc1ccccc1OC | 1.9%
O=C(NCC1(c2ccccc2)CCCC1)c1ccc(F)cc1 | i
